Bioassay records (PubChem BioAssay)
PABP polyA inh = PABP-poly(A) binding inhibition; PABP-poly(A) RNA binding, fluorescence polarization; inhibition, % at 35 µM; AID 2014; P11940; 290,000 tested, 1% active;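 active = 50% or more with normal probe brightness, or confirmed in later tests; about a fifth of its hits are not listed in these tables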;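 also: calls also rest on retests at 20 µM and on dose response follow-up; controls were probe without protein and protein plus probe with vehicle; some compounds called inactive have numbers as strong as hits; many hits fall short of the cut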
Target sequence (P11940 whole entry, looked up): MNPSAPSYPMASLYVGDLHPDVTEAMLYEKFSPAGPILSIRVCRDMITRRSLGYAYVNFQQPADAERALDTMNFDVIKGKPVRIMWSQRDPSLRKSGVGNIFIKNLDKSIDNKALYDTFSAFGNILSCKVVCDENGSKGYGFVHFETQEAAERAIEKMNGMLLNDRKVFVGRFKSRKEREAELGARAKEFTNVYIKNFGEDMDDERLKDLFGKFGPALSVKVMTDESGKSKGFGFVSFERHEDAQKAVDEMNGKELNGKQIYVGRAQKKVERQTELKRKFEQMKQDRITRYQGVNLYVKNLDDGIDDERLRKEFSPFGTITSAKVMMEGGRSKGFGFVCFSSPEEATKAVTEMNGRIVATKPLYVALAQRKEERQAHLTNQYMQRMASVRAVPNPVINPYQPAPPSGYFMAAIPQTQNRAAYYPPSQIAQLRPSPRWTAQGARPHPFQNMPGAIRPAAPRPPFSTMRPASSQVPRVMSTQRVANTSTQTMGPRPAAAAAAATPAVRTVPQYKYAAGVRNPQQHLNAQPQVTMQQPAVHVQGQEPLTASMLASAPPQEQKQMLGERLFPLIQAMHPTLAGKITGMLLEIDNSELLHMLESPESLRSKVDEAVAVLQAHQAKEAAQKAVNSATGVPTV
Rce1 inhib = yeast Ras-converting enzyme inhibition. Q03530. yeast membranes, quenched prenylated peptide cleavage fluorescence. calls only. 290,000 tested, 0.27% active. AID 2563;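 active = fall in fluorescence gain of 50% or more versus controls, with final raw signal at or below 3038400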;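 also: plate controls were neutral control wells for no effect and wells lacking membranes for full effect; tested at 10 µM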
Target sequence (Q03530 whole entry, looked up): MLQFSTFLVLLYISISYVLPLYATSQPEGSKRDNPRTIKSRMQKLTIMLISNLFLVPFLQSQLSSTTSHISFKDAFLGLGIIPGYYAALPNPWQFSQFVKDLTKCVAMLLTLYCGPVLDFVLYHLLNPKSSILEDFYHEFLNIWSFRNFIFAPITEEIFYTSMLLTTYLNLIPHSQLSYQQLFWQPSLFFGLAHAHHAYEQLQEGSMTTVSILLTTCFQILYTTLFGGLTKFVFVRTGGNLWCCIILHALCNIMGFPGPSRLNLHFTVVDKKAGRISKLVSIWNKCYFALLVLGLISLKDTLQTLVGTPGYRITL
CSC inhib = blocks cancer stem cells | cancer stem cell-like cells viability, luminescence | AID 2717 | 300,000 tested, 1.1% active | inhibition, % at 7.5 µM;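 active = mean at 75% or more and at least half the replicates too; tested in HMLE shEcad cells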;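 also: 0% = median of negative and 100% = median of positive control wells; the first replicate is given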
eIF4H inh = inhibitors of RNA binding by human eIF4H; 290,000 tested, 0.94% active; inhibition, % at 35 µM; AID 2012; Q15056; eIF4H fluorescence polarization binding assay;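 active = 50% or more with normal probe brightness, or confirmed in later tests; about a fifth of its hits are not listed in these tables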;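 also: calls also rest on retests at 20 µM and on dose response follow-up; 0% = protein and probe with vehicle and 100% = probe without protein; strong numbers were not always called active; many hits fall short of the cut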
UUG fidelity = modulators of start codon recognition fidelity in yeast | S. cerevisiae UUG-firefly luciferase reporter, luminescence/redox ratio | 350,000 tested, 0.13% active | activity score, % at 18.7 µM;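 active = replicate mean at a twofold rise or more, about +100% in these data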;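 also: firefly luciferase made from a UUG start codon reports start codon fidelity; reporter light over untreated wells divided by growth signal over untreated wells; some hits fall short of that in this replicate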
MT1-MMP act inh = inhibitors of human MT1-MMP activation; P50281; HT1080 RFP-PRO-GFP cells, GFP/RFP ratio fluorescence, overnight; percent of plate control window, DMSO zero; GFP/RFP ratio change, % at 20 µM; 360,000 tested, 0.061% active;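 active = GFP/RFP ratio change of at least 30% with cell ATP level not reduced by more than half and red fluorescence within 50% of control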; also: strong numbers were not always called active
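Test system: HT1080 RFP-PRO-GFP cells; Benchmarks: DMSO and RFP-L50D-GFP cell wells; Timing: cells overnight before dosing, compound overnight, 37 °C, 5% CO2; Compound: one 20 µM compound dose with 1% DMSO; Read-out: GFP/RFP fluorescence ratio.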
HIV Env fusion = HIV envelope-mediated fusion inhibition; AID 651610; HeLa-JRFL Env/CEM21 cell fusion, luciferase; 360,000 tested, 1.1% active; inhibition, % at 12.3 µM;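 active = mean replicate inhibition score of at least 50 and every replicate individually at or above 50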;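 also: 0% = plate neutral controls and 100% = maraviroc near 300 nM; one replicate is shown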
MT1-MMP act inh RFP = further read-out of MT1-MMP act inh, marked with its call; RFP signal change, %; measured here: RFP expression control read;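 0 = vehicle wells; hits needed this value within 50% of zero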
* marks the source's active call; other numbers are inactive results; i = inactive; / = not tested or not shown; + = active, no number.

cpd	SMILES	PABP polyA inh	Rce1 inhib	CSC inhib	eIF4H inh	UUG fidelity	MT1-MMP act inh	MT1-MMP act inh RFP	HIV Env fusion
1	NC(N)=N/N=C/c1ccc(OCc2ccccc2Cl)cc1	1	i	105*	-5	-13	-10	-7	/
2	CCC1Cc2c(nc(N)c3c(N)nc(N4CCCCC4)c(C#N)c23)O1 (centres undefined)	1	i	3	0	/	-1	-3	23
3	CCc1ccc(N2Cc3ccccc3C2)cc1	-1	i	9	-1	/	-5	-3	-19
4	CC1(C)CC(=O)C=C(Nc2cccc(F)c2)C1	-7	i	-7	-13	3	-1	0	-9
5	O=c1c(-c2ccccc2)c(O)c2c(n1-c1ccccc1)CCCC2	-7	i	1	-5	/	2	8	/
6	O=C(Nc1ccc(NC(=S)NC(=O)C(c2ccccc2)c2ccccc2)cc1)c1ccccc1	/	i	49	/	-5	-19	-17	/
7	Cc1cc(C)c(S(=O)(=O)N2CCCOC2CNC(=O)C(=O)NCCC2=CCCCC2)c(C)c1 (centres undefined)	-2	i	17	5	/	-2	0	2
8	COc1ccccc1N(CC(O)CN(c1ccccc1)S(C)(=O)=O)S(=O)(=O)c1ccccc1 (centres undefined)	-16	i	2	15	6	-1	2	/
9	Cc1c(C(=O)O)sc2nc(/C=C/c3cccc(O)c3)[nH]c(=O)c12	11	i	-1	-9	-24	2	5	9
10	Cc1c(Cl)c([N+](=O)[O-])nn1CCCC(=O)Nc1c(Cl)cccc1Cl	-9	i	14	-11	-1	1	4	-106
11	CC(=O)C(C)Oc1ccc2c3c(c(=O)oc2c1)CCCC3 (centres undefined)	7	+	-4	1	4	2	0	i
12	O=C(Cn1nc(Cl)nc1Cl)c1ccc(F)cc1	5	i	-10	0	-11	-7	-3	-2
13	Cc1cc(Cl)ccc1OCC(=O)OCC(=O)Nc1ccc(Cl)cn1	/	/	/	/	-42	-4	-2	-11
14	Cc1ccc(S(=O)(=O)NC(=O)C2(C)CCN2C(=O)Cc2ccc(-c3ccccc3)cc2)nc1 (centres undefined)	/	/	/	/	-9	0	-4	3
15	Cn1c(NCCO)nc2c1c(=O)n(Cc1ccc(F)cc1)c(=O)n2C	-4	i	-5	-3	-7	-1	4	-2
16	Cc1ccnc(SC2CC(=O)N(c3ccc(F)cc3)C2=O)n1 (centres undefined)	-1	i	-11	6	-31	-3	4	4

Shown with each value named: part of the list above
(1) NC(N)=N/N=C/c1ccc(OCc2ccccc2Cl)cc1
  PABP polyA inh: 1
  Rce1 inhib: i
  CSC inhib: 105*
  eIF4H inh: -5
  UUG fidelity: -13
  MT1-MMP act inh: -10
  MT1-MMP act inh RFP: -7
  HIV Env fusion: /
(2) CCC1Cc2c(nc(N)c3c(N)nc(N4CCCCC4)c(C#N)c23)O1 (centres undefined)
  PABP polyA inh: 1
  Rce1 inhib: i
  CSC inhib: 3
  eIF4H inh: 0
  UUG fidelity: /
  MT1-MMP act inh: -1
  MT1-MMP act inh RFP: -3
  HIV Env fusion: 23
(3) CCc1ccc(N2Cc3ccccc3C2)cc1
  PABP polyA inh: -1
  Rce1 inhib: i
  CSC inhib: 9
  eIF4H inh: -1
  UUG fidelity: /
  MT1-MMP act inh: -5
  MT1-MMP act inh RFP: -3
  HIV Env fusion: -19
(4) CC1(C)CC(=O)C=C(Nc2cccc(F)c2)C1
  PABP polyA inh: -7
  Rce1 inhib: i
  CSC inhib: -7
  eIF4H inh: -13
  UUG fidelity: 3
  MT1-MMP act inh: -1
  MT1-MMP act inh RFP: 0
  HIV Env fusion: -9

The list continues.
cpd	SMILES	PABP polyA inh	Rce1 inhib	CSC inhib	eIF4H inh	UUG fidelity	MT1-MMP act inh	MT1-MMP act inh RFP	HIV Env fusion
17	COC(=O)c1ccc2[nH]c([C@H](C)O)c([C@H](C)O)c2c1	-1	i	15	-13	-16	-9	2	3
18	N#CCc1nn(-c2ccc(Cl)cc2)c(N)c1C#N	-7	i	-9	-1	-19	1	0	/
19	O=C(Nc1ccc2ccccc2c1)c1ccccc1O	-11	i	50	-21	-43	-12	-20	-144
20	Cc1cc(=O)oc2c(C(=O)/C=C/c3ccccc3)c(O)ccc12	-3	i	3	2	-14	-5	-6	/
21	CN1CCN(CC(=O)c2ccccc2F)CC1	23	i	0	15	2	-5	1	22
22	Cc1cc(C)cc(N(C(=O)CCC(=O)Nc2ccccn2)C(C(=O)NC(C)C)c2ccc(O)cc2)c1 (centres undefined)	-9	i	-15	-11	/	/	/	/
23	Cc1oc(-c2ccccc2Cl)nc1CS(=O)CC(=O)NCCc1ccccc1 (centres undefined)	7	i	2	2	-5	1	4	6
24	Nc1ncnc2nc(SCC(=O)Nc3ccccc3F)[nH]c12	-5	i	4	-2	/	5	2	12
25	S=c1nc2ccccc2c2nc(-c3ccccc3Br)[nH]n12	-2	i	24	12	-14	7	0	2
26	COc1ccc(C(=O)N/N=C(\C)Cn2cnc([N+](=O)[O-])n2)cc1	4	i	9	5	-7	0	3	-16
27	COC(=O)N/N=C/c1cccnc1	-2	i	-7	5	-17	5	6	-20
28	CC(C)(CO)CN1CCC(n2nccc2NC(=O)C2CCCC2)CC1	2	i	-13	-5	-10	-2	4	-2
29	COc1cc2ncnc(NCc3ccco3)c2cc1OC	-4	i	-17	-1	/	0	-6	30
30	CCOC(=O)C1CCN(C(=O)C2CCN(S(=O)(=O)c3cc(Cl)ccc3Cl)CC2)CC1	4	i	-9	4	-1	9	-1	22
31	COc1cccc(C2c3[nH]c4ccccc4c3C[C@H]3C(=O)N(CCCO)CC(=O)N23)c1OC (some centres undefined)	-5	i	-3	9	-4	1	0	15
32	CCOC(=O)C1=C[C@@H](C(C)(C)C)N(S(=O)(=O)c2ccc(C)cc2)[C@H]1c1ccc(Cl)c(Cl)c1	/	/	/	/	-15	-2	-31	43
33	COC(=O)c1c(-c2snnc2C)n[nH]c1C	-8	i	-1	-5	/	3	4	-8
34	C=CCN(CC=C)C(=O)C1CC(=O)N(c2ccc(Br)cc2)C1 (centres undefined)	-5	i	-11	5	6	-2	1	/
35	Cc1ccc(C(O)c2ncc(-c3ccc4ccccc4c3)[nH]2)c(C)c1 (centres undefined)	/	/	/	/	-7	4	4	-14
36	C[C@H](O)[C@@H]1C(=O)N2CCc3c([nH]c4ccccc34)[C@@H]2C[C@@H]1N(C)C(=O)c1ccco1	/	/	/	/	15	3	8	-9
37	O=C(NCCN1CCCCC1)Nc1ccccc1Cl	-4	i	1	-8	-13	3	1	-1
38	CNCCC(Oc1ccc(C(F)(F)F)cc1)c1ccccc1 (centres undefined)	2	i	6	-12	-9	-2	-1	-6
39	CCN1C(=O)C2(C(C#N)=C(N)Oc3cc(C)oc(=O)c32)c2ccccc21 (centres undefined)	4	i	-8	2	-13	3	2	-26
40	CCn1c(CC(=O)Nc2ccccc2)n[nH]c1=S	3	i	5	-13	-6	-3	2	-5
41	CC1CCCCN1CCNC(=O)c1ccc2c(c1)N(Cc1ccccc1)C(=O)c1ccccc1S2(=O)=O (centres undefined)	-8	i	/	-11	-10	-3	2	-7
42	CC(/C=N/NC(=O)CSc1nc2ccccc2n1C)=C\c1ccco1	-1	i	33	14	/	-3	2	8
43	CCOCCCNC(=O)CCCn1nc(C)n2c(cc3sccc32)c1=O	2	i	-1	-3	-19	-1	1	4
44	COc1ccc(Cl)cc1NC(=O)COC(=O)C(CC(C)C)N1C(=O)C2CC=CCC2C1=O (centres undefined)	-5	i	-6	-10	/	-4	-3	-17
45	CC1(C)C(=O)Nc2ccccc2N1C(=O)COc1ncnc2c(Cl)cc(Cl)cc12	4	i	/	2	3	2	-1	-25
46	O=C(Nc1ccc(C(=O)N2CCC(O)(c3ccc(Cl)c(C(F)(F)F)c3)CC2)cc1)c1ccc(Br)o1	/	/	17	/	-1	-1	-7	11
47	CC1Cc2nc(SCC(=O)N3CCCC3)n(C)c(=O)c2S1 (centres undefined)	2	i	-6	1	-14	1	4	-12
48	CNC(=O)CSc1nnc(-c2cccnc2)n1CCc1ccccc1	-6	i	-8	-6	/	-5	1	-14
49	CCOC(=O)c1c(-c2ccc(C)cc2)csc1NC(=O)CCSc1nnc2ccccn12	-6	i	/	-5	-15	1	-14	7
50	CCOc1cc(N2CCOCC2)c(OCC)cc1NC(=O)CSc1ccccc1C(=O)O	/	/	/	/	42	1	5	-13
51	CC1CCN(S(=O)(=O)c2cccc(C(N)=O)c2)CC1	10	i	-16	-1	-22	4	1	-31
52	C/C(=N/NC(=O)CN1CCN(Cc2ccccc2Cl)CC1)c1ccncc1	-8	i	-8	-12	/	1	4	23
53	CCCCN(C)CCOc1ccccc1OCC	3	i	0	11	-7	-1	3	12
54	C=Cn1ccnc1P(=S)(c1ccc2c(c1)c1ccccc1n2CC)c1nccn1C=C	-3	/	106*	-21	-13	-12	-15	/
55	O=C(c1cccc(S(=O)(=O)N2CCCC2)c1)N1CCCC(C(F)(F)F)C1 (centres undefined)	/	i	-2	/	-16	1	1	-15
56	COC(=O)c1ccc(Oc2ccc(C(C)(C)C)cc2)c([N+](=O)[O-])c1	-5	i	1	-2	/	3	4	/

A different layout for 3 compounds above.
20. Cc1cc(=O)oc2c(C(=O)/C=C/c3ccccc3)c(O)ccc12
  PABP polyA inh: -3
  Rce1 inhib: i
  CSC inhib: 3
  eIF4H inh: 2
  UUG fidelity: -14
  MT1-MMP act inh: -5
  MT1-MMP act inh RFP: -6
  HIV Env fusion: /

16. Cc1ccnc(SC2CC(=O)N(c3ccc(F)cc3)C2=O)n1 (centres undefined)
  PABP polyA inh: -1
  Rce1 inhib: i
  CSC inhib: -11
  eIF4H inh: 6
  UUG fidelity: -31
  MT1-MMP act inh: -3
  MT1-MMP act inh RFP: 4
  HIV Env fusion: 4

8. COc1ccccc1N(CC(O)CN(c1ccccc1)S(C)(=O)=O)S(=O)(=O)c1ccccc1 (centres undefined)
  PABP polyA inh: -16
  Rce1 inhib: i
  CSC inhib: 2
  eIF4H inh: 15
  UUG fidelity: 6
  MT1-MMP act inh: -1
  MT1-MMP act inh RFP: 2
  HIV Env fusion: /

(cont.)
cpd	SMILES	PABP polyA inh	Rce1 inhib	CSC inhib	eIF4H inh	UUG fidelity	MT1-MMP act inh	MT1-MMP act inh RFP	HIV Env fusion
57	CC(C)C(=O)Nc1ccc2c(c1)C(=O)N(CCC(=O)O)C2=O	2	i	/	-9	-7	0	-1	/
58	NS(=O)(=O)c1ccc(NC(=S)NC(=O)c2cccc(Br)c2)cc1	3	i	/	-4	-6	-1	1	9
59	CC1CCN(Cc2cc(=O)oc3cc4c(cc23)CCCC4)CC1	2	i	6	-2	-17	-2	-2	3
60	CS(=O)(=O)N1N=C(c2ccco2)CC1c1ccc(Cl)cc1 (centres undefined)	-17	i	-5	2	/	-3	-4	-12
61	CCN(CC)S(=O)(=O)c1ccc(C(=O)OCC(=O)NCCN2C(=O)CSC2=O)cc1	-11	i	2	0	7	4	4	16
62	COC(=O)c1ccc(CSc2nc3ccc(S(=O)(=O)N4CCOCC4)cc3[nH]2)cc1	7	i	-5	0	/	1	0	/
63	CCOC(=O)C1CCN(C(=O)c2ccco2)CC1	-5	/	-7	-3	1	2	5	/
64	CCOc1ccc(NC(=O)CN(C)C(=O)c2n[nH]c(=O)c3ccccc23)cc1OCC	/	/	/	/	-12	2	4	4
65	Cn1c(Cn2c(=O)sc3ccccc32)nnc1SCC(=O)N1CCCC1	18	i	-5	-3	-11	5	3	-5
